From PubChem BioAssay
KCNQ2 block: KCNQ2 channel blockers in CHO-K1 cells – cell-based, FluxOR thallium flux, B-score, primary screen (AID 2156); O88943; 20 min; active compounds read low; only compounds with negative scores are shown here; some inactives read as strong as hits; B-score at 10 µM; 310,000 tested, 1.1% active;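 active means fluorescence ratio B-score at most minus 3 library SDs, with starting brightness B-score within 2 library SDs, cut at about -5.5 in these data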
Target sequence (O88943 whole entry, looked up): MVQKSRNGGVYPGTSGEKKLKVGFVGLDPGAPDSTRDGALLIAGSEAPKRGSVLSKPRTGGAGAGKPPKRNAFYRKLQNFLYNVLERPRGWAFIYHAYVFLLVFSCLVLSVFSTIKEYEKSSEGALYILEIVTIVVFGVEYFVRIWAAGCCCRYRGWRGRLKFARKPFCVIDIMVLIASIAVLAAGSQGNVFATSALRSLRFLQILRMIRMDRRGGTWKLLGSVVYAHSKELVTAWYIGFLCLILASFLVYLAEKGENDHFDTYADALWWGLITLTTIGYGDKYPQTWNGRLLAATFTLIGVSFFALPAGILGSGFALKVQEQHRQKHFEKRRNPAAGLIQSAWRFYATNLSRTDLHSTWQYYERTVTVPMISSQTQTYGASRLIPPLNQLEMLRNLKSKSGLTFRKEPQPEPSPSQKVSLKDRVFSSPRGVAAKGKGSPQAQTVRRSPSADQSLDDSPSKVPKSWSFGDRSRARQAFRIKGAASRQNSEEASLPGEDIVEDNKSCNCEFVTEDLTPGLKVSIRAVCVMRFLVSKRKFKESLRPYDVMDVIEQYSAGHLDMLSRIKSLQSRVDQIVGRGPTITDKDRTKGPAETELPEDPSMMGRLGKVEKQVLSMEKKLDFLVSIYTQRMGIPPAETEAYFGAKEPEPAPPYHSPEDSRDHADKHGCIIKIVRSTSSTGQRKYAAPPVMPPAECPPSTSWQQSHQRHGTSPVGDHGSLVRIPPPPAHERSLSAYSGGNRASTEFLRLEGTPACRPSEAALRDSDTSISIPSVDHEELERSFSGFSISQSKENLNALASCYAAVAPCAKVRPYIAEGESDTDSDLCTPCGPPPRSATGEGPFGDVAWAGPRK
KCNQ2 block baseline: further read-out of KCNQ2 block, marked with its call; B-score; measured here: initial fluorescence intensity artifact check;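 brightness before thallium and not channel activity; 0 = typical well and far values either way flag optical interference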
* hit, by the source's call; i = inactive.

KCNQ2 block	KCNQ2 block baseline	structure
-6.6*	0.26*	COc1ccccc1S(=O)(=O)Cc1ccc(C(=O)N2CCN(c3ccc(C)cc3)C(C)C2)o1 (configuration not stated)
i	-1.7	CC(/C=C1\SC(=Nc2cccnc2)NC1=O)=C\c1ccccc1
i	22	CCCN1C(=O)S/C(=C\c2ccc(N3CCOCC3)o2)C1=O
i	-0.7	O=C(CN1CCN(C(=O)c2ccco2)CC1)Nc1ccccc1-c1ccccc1
i	0.34	CCC(=O)Oc1ccc(NC(=O)CSCc2ccccc2)cc1
i	1.8	COc1cc(OC)cc(C(=O)N[C@H](C(=O)OCC(=O)Nc2ccc(F)c(F)c2)C(C)C)c1
i	0.7	COC(=O)COc1ccc(S(=O)(=O)Nc2ccc(C(N)=O)cc2)cc1Cl
i	-0.75	Cc1ccc2cc(COC(=O)c3ccco3)c(=O)[nH]c2c1
i	-0.85	CC(C)NC(=O)COC(=O)/C=C/c1ccco1
i	0.86	CCN1C(=O)[C@H]2[C@@H](c3ccc(-c4ccc(Cl)c(Cl)c4)cc3)N[C@@](Cc3ccccc3)(C(=O)OC)[C@H]2C1=O
i	0.19	COc1ccc(N2CCN(CCCNC(=O)C(=O)c3c(C)[nH]c4ccccc34)CC2)cc1
i	1.2	CCCCCc1ccc(OCCOCCn2c[n+](C)c3ccccc32)c(CCCCC)c1
i	-0.48	COc1cc(/C=C2/SC(=Nc3ccc(O)cc3)NC2=O)cc(OC)c1O
i	0.07	COc1ccc(C(=O)NCCc2nnc3ccc(SCC(=O)Nc4ccccc4)nn23)cc1
i	0.14	O=C(c1cc(-c2ccccn2)nc2ccc(Br)cc12)N1CCc2ccccc2C1
i	-0.56	COc1ccc(-c2nc(CS(=O)(=O)CC(=O)Nc3cccc(C(C)=O)c3)c(C)o2)cc1
i	-0.77	CCc1ccc(NC(=O)C(CC)Sc2nc3cc4c(cc3c(=O)n2Cc2ccco2)OCO4)cc1 (configuration not stated)
i	2.5	CC(=O)Nc1ccc(/C(C)=N/NC(=O)c2ccc(CN3CCOCC3)cc2)cc1
i	0.15	Oc1cccc(C=NCc2ccccc2)c1O
i	-2	Cc1nc(/N=C(\N)N(C)C)[nH]c(=O)c1C
i	1.4	CSc1ccc(CNc2ncc(-c3cccc([N+](=O)[O-])c3)n2C)cc1
i	0.12	CC(C)OC(=O)/C(=C\c1ccc2c(c1)c1ccccc1n2C)NC(=O)c1ccccc1
i	-1.1	COc1ccccc1-c1nc2c(c(SCC(=O)N3CCCCC3)n1)Cc1c(CO)cnc(C)c1O2
i	-0.08	C[C@@H](C(=O)Nc1ccc2ccccc2c1)[C@@H]1C[C@@]1(C)[C@@H](N)c1ccccc1
i	-0.76	OCCC1CN(Cc2cc(F)ccc2-n2cccn2)CCN1C1CCCC1 (configuration not stated)
i	-0.19	O=C(Nc1ccc(Br)cc1)C1CC(O)CN1C(=O)Oc1ccccc1 (configuration not stated)
i	-0.06	O=C(COC(=O)c1cnccn1)NCCc1ccc(Cl)cc1Cl
i	-0.3	Cc1ccccc1NC(=O)CCN1CCN(Cc2ccccc2)CC1
i	-1	c1ccc2cc(OCc3nc4ccccc4[nH]3)ccc2c1
i	-0.01	COc1ccc([N+](=O)[O-])cc1NC(=O)C(C)N(C)Cc1cccc(OC)c1OC (configuration not stated)
i	1.4	COc1ccc(C)cc1NC(=O)C(OC(=O)C1CC1)c1ccccc1 (configuration not stated)
i	2	Cc1cccc(N(C)S(=O)(=O)c2c(C)noc2C)c1
i	-0.09	CCOC(=O)C1CCN(C(=O)c2ccc(Cl)c(S(=O)(=O)N3CCOCC3)c2)CC1
i	-0.17	COc1ccc(CCNC(N)=S)cc1OC
i	-0.54	C=CCOCCN1C(=O)C2C(c3ccccc3)C=CC(c3ccccc3)C2C1=O (configuration not stated)
i	-0.03	CCC(=O)N1c2ccc(S(=O)(=O)N3CCN(CC)CC3)cc2CC1C (configuration not stated)
i	1.2	COc1ccc(-c2cc(C(F)(F)F)nc(SCC(=O)Nc3cc(C)on3)n2)cc1OC
i	-2.1	O=S(=O)(c1ccccc1)c1ccc(NCc2ccco2)cc1
i	-0.69	Cc1nn(Cc2ccc(F)cc2)c2sc(C(=O)Nc3ccc(N4CCOCC4)cc3N3CCOCC3)cc12
i	-2	COc1ccc(N2CCN(/C(=N\S(=O)(=O)c3ccccc3)Nc3nc(C)cc(C)n3)CC2)cc1
i	-0.7	CC1(C)Cc2nc3nc(SCC(=O)NCCc4ccccc4)n(-c4ccccc4)c(=O)c3cc2CO1
i	0.31	O=C(N/N=C/c1ccccc1Br)C1CC1
i	1.7	O=C(CN1CCN(Cc2ccccc2)CC1)Nc1cccc(Br)c1
i	0.74	O=[N+]([O-])c1cc(-c2nc3nc4ccccc4nc3n2CCc2ccccc2)cc([N+](=O)[O-])c1
i	1.3	CCN1C(=O)C(CC(=O)Nc2ccc(OC)cc2)N(Cc2cccnc2)C1=S (configuration not stated)
i	-1.5	O=C1C2C3C=CC(C3)C2C(=O)N1CC1CCCO1 (configuration not stated)
i	1.1	CCN(CCn1cccn1)Cc1ccccc1OCC(O)CN1CCc2ccccc2C1 (configuration not stated)
i	1.8	Cc1ccc(-c2nc(CS(=O)CC(=O)N3CCN(c4ccccc4)CC3)c(C)o2)cc1 (configuration not stated)
i	-0.11	O=C(NCCCN1CCOCC1)NC12CC3CC(CC(C3)C1)C2
i	0.23	N#C/C=C1\n2c(nc3ccccc32)OC12CCCCC2
i	2.9	COc1ccc(C(=O)O/N=C(\C)c2ccccc2)cc1
i	-1.2	Cc1ccc(C(OCC(O)CNCc2ccc(F)cc2)c2ccccc2)cc1 (configuration not stated)
i	1.5	Cc1ccc(C)c(OCC(O)CN2C(C)CCCC2C)c1 (configuration not stated)
i	1.7	c1ccc(CCc2ccncc2)cc1
i	-0.31	CCCS(=O)(=O)N1CCc2ccc(NC(=O)c3ccccc3Cl)cc2C1
i	1.3	C=CCN1C(=O)C(O)(CC(=O)c2ccco2)c2cc(Br)ccc21 (configuration not stated)
i	-1.6	Cc1cc(C)c2[nH]c3nc(SCC(=O)O)nnc3c2c1
i	2.8	NC(=O)CN1C(=O)C(O)(CC(=O)/C=C\c2ccc3c(c2)OCO3)c2ccccc21 (configuration not stated)
i	-0.29	N/C(=N\OC(=O)c1ccc(Cl)cc1[N+](=O)[O-])c1ccccn1
i	0.16	COc1ccc(CC(=O)Nc2ccc(S(=O)(=O)Nc3cc(OC)nc(OC)n3)cc2)cc1

Next compounds
KCNQ2 block	KCNQ2 block baseline	structure
i	-0.38	CCCCN(CCCC)C(=O)c1cc(Cl)ccc1[N+](=O)[O-]
i	0.1	COC(=O)C1(C(=O)OC)NOC2C(=O)N(N(C)c3ncc(C(F)(F)F)cc3Cl)C(=O)C21 (configuration not stated)
i	2.2	COC(CC(=O)NNC(=S)Nc1ccc(Cl)cc1)OC
i	-1.2	COc1ccccc1C(=O)C1CCCN(C(=O)c2cccc(Cn3cccn3)c2)C1 (configuration not stated)
i	0.31	COc1cccc(C(c2sc3ncnn3c2O)N2CCc3ccccc3C2)c1 (configuration not stated)
i	-0.78	COc1cc(-c2n[nH]c(=S)n2Cc2ccccc2)cc(OC)c1OC
i	-1.9	COc1ccc(C(=N/O)/C(=N/O)c2ccc(OC)cc2)cc1
i	-0.39	Cc1nc2ccc(S(=O)(=O)NCC(=O)N3CCC(C)CC3)cc2s1
-5.7*	-0.46*	COC(=O)C1=C(C)N(Cc2ccccc2)C(=O)/C1=C\c1ccco1
i	-0.89	O=C(c1cc(-c2cccc(Cl)c2)nc2ccccc12)N1CCN(c2ccccn2)CC1
i	-0.92	CCOc1ccc(N(C)S(=O)(=O)c2cc(-c3cc(C)no3)ccc2OC)cc1
i	-1	O=C(N/N=C1\CCCc2ccccc21)c1ccc([N+](=O)[O-])cc1Cl
i	-0.24	OC(COCC1COc2ccccc2O1)CN1CCCCC1 (configuration not stated)
i	-0.64	Cc1ccc2c(CN(C)Cc3ccc(OC(F)F)cc3)cc(=O)oc2c1C
i	-1.1	CCN(CC(=O)Nc1ccc(NC(C)=O)cc1)C(=O)/C=C/c1cn(-c2ccccc2)nc1-c1ccc(C)cc1
i	0.69	Cc1cc(C(=O)CN2C(=O)C(=O)N(C3CCCC3)C2=O)c(C)n1-c1ccc(F)cc1
i	-0.03	O=C(c1cccc(NC2=NC3CS(=O)(=O)CC3S2)c1)N1CCN(c2ncccn2)CC1 (configuration not stated)
i	-0.04	CCCCN(CC)CCCNC(=O)c1ccc(CS(=O)(=O)c2ccccc2C)o1
i	-0.77	CCOC(=O)C1=C(C)N(C)C(=S)NC1c1ccccc1Cl (configuration not stated)
i	-0.19	C=CCOc1ccccc1CN1CCC(Oc2ccc(C(=O)N3CCCCC3)cc2)CC1
i	-0.32	Cc1ccc(CNC(=O)CCNS(=O)(=O)c2cccc3nsnc23)cc1
i	-0.14	CC(C)NCc1nnc(-c2ccccc2Cl)o1
i	-0.06	COc1cc(O)c(C(C)=O)cc1OC
i	0.65	CCOc1ccc(NC(=O)CSc2nnc(COc3c(C)cccc3C)o2)cc1
i	0.9	CCN(CC)S(=O)(=O)c1cccc(-c2nnc(SCCOc3ccccc3C)o2)c1
-7.8*	-0.44*	Cc1ccc(C)n1-c1sc2c(c1C#N)CCC(C)C2 (configuration not stated)
i	1	Cc1cccc2cc(CN(CC3CCCO3)C(=O)c3cnccn3)c(=O)[nH]c12 (configuration not stated)
i	-1.5	CCSc1nsc(SCC)c1C(N)=O
i	1.2	O=C1/C(=C\c2ccco2)SC(=S)N1C1CCS(=O)(=O)C1 (configuration not stated)
i	0.99	O=C(NNC(=O)c1ccccc1-c1ccccc1C(=O)O)c1cccc([N+](=O)[O-])c1
i	-1.2	COC(=O)[C@@H](Cc1c[nH]c2ccccc12)NC(=O)CCC(=O)c1ccc(Br)cc1
i	-2.6	Nc1nc(C(=O)N2CCOCC2)nn1S(=O)(=O)c1ccc(Cl)cc1
i	1.2	CC(C)C(=O)Nc1ncc2c(n1)CC(c1cccs1)CC2=O (configuration not stated)
i	1	O=C(CCCNS(=O)(=O)c1cccs1)N1CCc2ccccc2C1
i	-3.1	O=C(CSc1n[nH]c(-c2ccncc2)n1)Nc1ccccc1Cl
i	-0.45	OC(COCc1cccs1)CN1CCN(c2cccc(C(F)(F)F)c2)CC1 (configuration not stated)
-5.8*	0.26*	O=c1c2ccccc2c(-c2ccccc2)nn1Cc1c(Cl)cccc1Cl
i	-0.43	COc1ccc2oc(=N)c(C(=O)Nc3ccc(C)cc3)cc2c1
i	1.9	CCCCN1C(=O)/C(=C2\SC(N3CCOCC3)=NC2=O)c2ccccc21
i	0.63	NC(=O)N1N=C2/C(=C/c3ccccc3)CCCC2C1c1ccccc1 (configuration not stated)
i	0.33	O=C(CCC(=O)NC1CCCCC1)N/N=C/c1ccncc1
i	0.48	CCOC(=O)C(CC)Sc1nc2c(c(=O)[nH]c(=O)n2C)n1CCc1ccccc1 (configuration not stated)
i	2.8	C=CCNC(=O)/C(C#N)=C/c1cc(Br)ccc1OC
i	-0.25	COc1ccc2c(c1)C=C([C@@H]1C[C@H]3CN(c4ccccc4)C(=O)[C@]34CCCN14)CO2
i	-0.44	CCCn1c(SCC(=O)c2ccc3c(c2)OCCO3)nnc1C(C)C
i	4.4	CN(C(=O)CCc1nc(-c2ccccc2F)no1)c1ccccc1
i	1.3	COc1cccc(N2C(=O)C3CCCN3C2=S)c1 (configuration not stated)
i	-2	O=C(NNC(=O)c1ccccc1O)c1ccc(-c2ccc([N+](=O)[O-])cc2)o1
i	-1.2	Cc1ccc(C2CC2C(=O)NNC(=S)Nc2ccc(Cl)cc2)cc1 (configuration not stated)
i	2.6	CCCCNC(=S)N1CCC(Cc2ccccc2)CC1
i	-1	O=C(CC1Oc2ccccc2NC1=O)NCCCN1CCN(C2CCCCC2)CC1 (configuration not stated)
i	0.68	NC12CC3CC(C1)CC(CC(=O)O)(C3)C2
i	0.4	COc1ccccc1NC(=O)CCC(=O)N(Cc1ccc(OC)c(OC)c1)c1nccs1
i	1	O=C(CCSc1nnnn1-c1ccccc1)N1CCOCC1
i	0.56	COc1cc2c(cc1NC(=O)COc1ccccc1OC)oc1ccccc12
i	1.1	O=C(N/N=C/C=C/c1ccccc1)NC1CCCCC1
i	-0.94	COc1ccccc1C(=O)Nc1ccc(N2CCCCC2)cc1

Looked up above.
C=CCNC(=O)/C(C#N)=C/c1cc(Br)ccc1OC in KCNQ2 block baseline is entered as 2.8
COc1cc2c(cc1NC(=O)COc1ccccc1OC)oc1ccccc12 in KCNQ2 block baseline is entered as 0.56

Entries from the list above that contain a furan ring, fused or not (13):
KCNQ2 block	KCNQ2 block baseline	structure
-6.6*	0.26*	COc1ccccc1S(=O)(=O)Cc1ccc(C(=O)N2CCN(c3ccc(C)cc3)C(C)C2)o1 (configuration not stated)
i	22	CCCN1C(=O)S/C(=C\c2ccc(N3CCOCC3)o2)C1=O
i	-0.7	O=C(CN1CCN(C(=O)c2ccco2)CC1)Nc1ccccc1-c1ccccc1
i	-0.75	Cc1ccc2cc(COC(=O)c3ccco3)c(=O)[nH]c2c1
i	-0.85	CC(C)NC(=O)COC(=O)/C=C/c1ccco1
i	-0.77	CCc1ccc(NC(=O)C(CC)Sc2nc3cc4c(cc3c(=O)n2Cc2ccco2)OCO4)cc1 (configuration not stated)
i	-2.1	O=S(=O)(c1ccccc1)c1ccc(NCc2ccco2)cc1
i	1.3	C=CCN1C(=O)C(O)(CC(=O)c2ccco2)c2cc(Br)ccc21 (configuration not stated)
-5.7*	-0.46*	COC(=O)C1=C(C)N(Cc2ccccc2)C(=O)/C1=C\c1ccco1
i	-0.04	CCCCN(CC)CCCNC(=O)c1ccc(CS(=O)(=O)c2ccccc2C)o1
i	1.2	O=C1/C(=C\c2ccco2)SC(=S)N1C1CCS(=O)(=O)C1 (configuration not stated)
i	-2	O=C(NNC(=O)c1ccccc1O)c1ccc(-c2ccc([N+](=O)[O-])cc2)o1
i	0.56	COc1cc2c(cc1NC(=O)COc1ccccc1OC)oc1ccccc12

Only part of the results is shown. The share of hits here may be higher or lower than overall.
